VDR inh = Inhibitors of the vitamin D receptor (VDR): qHTS | Vitamin D3 receptor (Homo sapiens), P11473 | VDR-SRC2-3 peptide fluorescence polarization, 2 h | Potency, µM, inactives show max response, negative = inhibition, hits mostly inhibitors | 400,000 tested, 0.93% active | AID 504847, 2011; active = well fitted inhibition curve with a large enough effect; inconclusive = small, poorly fitted or top-dose-only effect, or another doubt; inactive = no such curve, though single readings can be large or run the other way; note: series mostly up to about 120 µM
Target sequence (P11473 whole entry, looked up): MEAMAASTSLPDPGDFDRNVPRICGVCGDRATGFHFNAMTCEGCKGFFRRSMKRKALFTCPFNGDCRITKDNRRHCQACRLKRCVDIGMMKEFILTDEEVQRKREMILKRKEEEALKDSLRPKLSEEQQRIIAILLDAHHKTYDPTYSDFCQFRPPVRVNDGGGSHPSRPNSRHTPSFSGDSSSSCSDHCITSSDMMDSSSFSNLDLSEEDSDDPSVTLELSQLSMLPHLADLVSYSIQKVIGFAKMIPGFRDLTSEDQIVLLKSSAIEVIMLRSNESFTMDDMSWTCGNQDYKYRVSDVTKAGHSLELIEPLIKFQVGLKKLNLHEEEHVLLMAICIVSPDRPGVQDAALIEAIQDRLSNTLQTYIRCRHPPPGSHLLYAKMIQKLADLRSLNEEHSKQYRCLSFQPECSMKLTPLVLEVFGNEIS
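The screen uses fluorescence polarization to detect compounds that interfere with recruitment of the SRC2-3 coactivator peptide to VDR; plates are read after 2 h at room temperature.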
Active calls of the source: *; ? = inconclusive; & = joins results of further samples. % is set by controls: 0 for no effect and ±100 for the full control effect; potency is the fitted concentration of half-maximal effect.

SMILES	VDR inh
CCOc1ccc(NC(=O)COc2nsnc2N2CCOCC2)cc1	7%
Cc1cccc(N(C(=O)Cn2nnc(-c3ccc(F)cc3)n2)C(C(=O)NC(C)(C)C)c2ccncc2)c1 (centres undefined)	20%
CCN(CC)c1ccc(C(=O)NCc2ccc3c(c2)CCN3C(C)=O)cc1	19%
CCOC(=O)C1CCN(C(=O)Nc2ccc(C)c(Cl)c2)CC1	-12%
O=C(Nc1ccccc1F)c1cc(-c2ccco2)nc2ccccc12	3%
COc1ccc(C(=O)CC(=O)C(=O)Nc2ccccc2Cl)cc1	-1%
Cc1ccc(-c2nc(CCNC(=O)C(=O)Nc3ccc(C)c(C)c3)cs2)cc1	0%
Cc1ccccc1S(=O)(=O)Oc1ccc2ccc(O)cc2c1	-3%
N/C(=N\OC(=O)Cc1ccc(Cl)cc1)c1ccccn1	-3%
O=C(NCc1ccccn1)c1ccc(CS(=O)(=O)Cc2ccc(Cl)cc2)o1	-1%
N/C(=N\OC(=O)Cc1ccccc1)c1ccccc1Cl	-6%
Cc1ccc(S(=O)(=O)NCCC(=O)OC(C)C(=O)NC2CC2)cc1 (centres undefined)	-7%

Sorted by the number under VDR inh (falling): seven of the compounds above
SMILES	VDR inh
Cc1cccc(N(C(=O)Cn2nnc(-c3ccc(F)cc3)n2)C(C(=O)NC(C)(C)C)c2ccncc2)c1 (centres undefined)	20%
CCN(CC)c1ccc(C(=O)NCc2ccc3c(c2)CCN3C(C)=O)cc1	19%
CCOc1ccc(NC(=O)COc2nsnc2N2CCOCC2)cc1	7%
O=C(Nc1ccccc1F)c1cc(-c2ccco2)nc2ccccc12	3%
COc1ccc(C(=O)CC(=O)C(=O)Nc2ccccc2Cl)cc1	-1%
N/C(=N\OC(=O)Cc1ccc(Cl)cc1)c1ccccn1	-3%
N/C(=N\OC(=O)Cc1ccccc1)c1ccccc1Cl	-6%

New compounds follow
SMILES	VDR inh
CCOc1ccc(C2NC(=O)C(C#N)=C(S)N2c2ccc(C)cc2)cc1OC (centres undefined)	18µM*
COc1ccc(S(=O)(=O)Nc2ccc3c(c2)OCO3)cc1C(=O)O	-13%
COc1ccc(-n2ncc3c(Nc4cccc(C)c4)ncnc32)cc1	5%
CCOC(=O)C1CCCN(C(=O)c2ccco2)C1 (centres undefined)	5%
O=C(Nc1nnc(SCCC2OCCO2)s1)C1CC(=O)N(c2ccc(F)cc2)C1 (centres undefined)	?
O=C(Nc1ccc2c(c1)OCCO2)c1ccc(Cl)c(S(=O)(=O)N2CCCCC2)c1	1%
O=C(CCCCn1c(=O)c2ccccc2n(Cc2ccccc2Cl)c1=O)NCc1ccc2c(c1)OCO2	24%
Cc1ccc(/C=C/C2=NN(Cc3ccccc3Cl)C(=O)CC2)cc1	3%
COc1ccc(N2CC(O)=C(c3nc(-c4ccc(F)cc4)cs3)C2=N)cc1OC	-12%
CCCN(CCC)CCNC(=O)c1ccc2c(c1)NC(=O)C(CS(=O)(=O)Cc1cccc(Br)c1)N2 (centres undefined)	5%
CCN1C[C@@H]2[C@@H]3C(=O)N(Cc4ccccc4)C(=O)[C@@H]3[C@](C)(C1=O)N2C(=O)c1ccc(C(C)(C)C)cc1	-15%
CCOc1ccc(NC(=O)CN(C)C(=O)CN2C(=O)NC3(CCCC3)C2=O)cc1OCC	-7%
COc1ccc(-c2onc(C)c2C)cc1S(=O)(=O)NCc1ccco1	15%
COc1ccc(NC(=O)CS(=O)(=O)Cc2nc(-c3ccc(C)cc3)oc2C)cc1	7%
Cc1ccc(CNC(=O)Nc2cccc(C)c2)cc1	-11%
COc1ccccc1CNC(=O)c1ccc(Nc2nc3ccccc3n3nnnc23)cc1	-4%
C/C(=N\OC(=O)c1ccccc1)c1cc(-c2ccc(Cl)cc2)no1	-3%
CCOC(=O)c1c(NC(=O)c2ccno2)c2cc([N+](=O)[O-])ccc2n1C	3%
S=C(Nc1ccc(Cl)cc1Cl)NC1CCN(Cc2ccccc2)CC1	-22%
O=C(Nc1ccc2c(c1)CCC2)C1CCN(c2ncccn2)CC1	4%
CCOC(=O)c1sc(NC(=O)COc2ccccc2Cl)c(C(=O)OCC)c1C	9%
CC[n+]1ccccc1/C=C/c1ccc(N(C)C)cc1	-23%
O=C(O)c1ccccc1C(=O)c1ccc(F)c(F)c1	-3%
C/C(Cc1ccccc1)=N\NC(=O)CNC(=O)c1cccc(Br)c1	7%

Two entries from above, with values ahead of the structure.
| VDR inh | mol |
| --- | --- |
| -22% | S=C(Nc1ccc(Cl)cc1Cl)NC1CCN(Cc2ccccc2)CC1 |
| 4% | O=C(Nc1ccc2c(c1)CCC2)C1CCN(c2ncccn2)CC1 |

New compounds follow
SMILES	VDR inh
COC(=O)/C=C/c1ccc(OC(=O)OC)c(OC(=O)OC)c1	-1%
C=CCN(CC=C)C(=O)C(=O)c1ccn(-c2c(C)csc2C(=O)OC)c1	-6%
CSc1ccc(NS(=O)(=O)c2ccc(-n3cnnn3)cc2)cc1	3%
O=C(NCc1ccccc1)c1csc(-c2cccnc2)n1	-2%
CC(=O)Oc1ccccc1C1C[C@]2(C)CC(=O)NC2N1C(C)=O (some centres undefined)	7%
CCN1CCCC1CNC(=O)c1cc2ccc(OC)cc2[nH]1 (centres undefined)	-1%
Cc1cc(-n2c(C)cc(C(=O)CSc3nncn3C(C)C)c2C)no1	23%
OCC[C@H]1C[C@@H](O)[C@H](O)[C@]2(Cc3ccccc3O2)O1	-6%
Cc1cccc(C(=O)NNS(=O)(=O)c2ccc(F)cc2)c1	2%
O=S(=O)(c1cnccc1N1CCN(/N=C/c2ccc(Br)cc2)CC1)N1CCCCC1	-4%
NNC(=O)c1[nH]c2ccccc2c1-c1ccccc1	?
N#CCc1nc(C(c2ccccc2)c2ccccc2)no1	-16%
Cc1c(N2C(=O)CS/C2=N\N=C\c2ccccc2O)c(=O)n(-c2ccccc2)n1C	-3%
C=CCN1C(=O)/C(=C2/Sc3ccc(OC)cc3N2CC)SC1=S	-22%
Cc1ccc(NC(=O)C(=O)C2C(=O)Nc3ccccc32)cc1 (centres undefined)	4%
COc1cc(C(=O)NCc2nnnn2-c2ccc(C)c(C)c2)cc(OC)c1OC	5%
CSCC(C)N1CCC(CCC(=O)NC2CC2)CC1 (centres undefined)	-16%
COc1cc(OC)cc(N2C(=O)CSCC2=O)c1	-22%
COc1cc(CN2CCN(C(=O)c3cccc4ccccc34)CC2)cc(OC)c1O	-23%
CCCS(=O)(=O)N1CC(=O)N(c2cccc(Cl)c2C)C(C)(C(=O)NC2CCCC2)C1 (centres undefined)	4%
COc1ccc(/C=C/c2cc(O)cc(O[C@H]3OC(CO)C(O)C(O)C3O)c2)cc1 (some centres undefined)	3%
COc1ccccc1C1/C(=C(/O)c2ccccc2)C(=O)C(=O)N1CC(C)O (centres undefined)	10%
Cc1ccc2sc3ccc(NC(=O)c4ccccc4Cl)cc3c(=O)c2c1	11%
O=S(=O)(c1ccccc1)N1CCN(CCc2ccccc2)CC1	-24%
CN1C2CCC1CC(NS(=O)(=O)c1cccc(C(F)(F)F)c1)C2 (centres undefined)	-12%
COc1ccc(NC(=O)CCSc2ccc3ccccc3n2)cc1	-4%
Cc1c(C(=S)Nc2ccccc2)cnn1-c1ccc([N+](=O)[O-])cc1	-21%
CCN(CC)CCCCCCCCOC(=O)c1cc(OC)c(OC)c(OC)c1	5%&-1%
CC(C)/C(=N/Nc1ccccc1[N+](=O)[O-])c1ccccc1	-13%
CC(=O)Nc1ccc(NC(=O)CSc2ccccn2)cc1	1%
COCCNC(=O)/C(C#N)=C/c1nc(N(C)C)n(-c2ccc(F)cc2)c1Cl	16%
COc1ccc([N+](=O)[O-])cc1NC(=O)c1cn(-c2ccc(Cl)cc2)c(=O)c2ccccc12	-21%
CCOCCCNC(=O)/C(C#N)=C/c1ccc(-c2ccc(S(=O)(=O)N3CCOCC3)cc2)o1	-9%
CCC(C(=O)Nc1nc(C)cs1)c1ccccc1 (centres undefined)	?
CCOc1cc2c(cc1OCC)C(C(=O)O)C(c1ccc(OC)c(O)c1)N(C)C2=O (centres undefined)	-7%
NC(=O)c1cc(S(=O)(=O)Nc2ccc(OC(F)(F)F)cc2)cs1	-7%
Cc1cc2cc(CN(CC3CCCO3)C(=O)c3cnccn3)c(=O)[nH]c2cc1C (centres undefined)	-1%
O=C(CN1CCN(c2ccccn2)CC1)N1c2ccccc2CCc2ccccc21	8%
O=C(Nc1cccc([N+](=O)[O-])c1)C1C2CC/C=C\CCC21 (centres undefined)	17%
Cc1[nH]c2ccccc2c1CCN(Cc1cccnc1)C(=S)Nc1ccc(F)cc1	-21%
CCC1(CC)C(=O)C(C)(C)C(=O)OC1c1ccccn1 (centres undefined)	-3%
O=C(CSc1ncnc2c1nnn2-c1ccc(F)cc1)NCc1ccco1	-8%
O=C(c1ccco1)N1CCN(C2CC(=O)N(c3ccc(F)c(Cl)c3)C2=O)CC1 (centres undefined)	-2%
CCOC(=O)c1cc(-c2ccc(C)o2)nn1CCC#N	0%
CCOc1ccc(Br)cc1-c1noc(-c2cccs2)n1	18%
Cc1ccc(NC(=O)c2oc3ccccc3c2COC(C)C)cc1S(=O)(=O)N1CCOCC1	-11%
CN(C)CCCCCNCCCNC(=O)/C=N\O	2%
C=C1CCN([C@@H](CC(C)C)C(=O)Nc2ccc(OC)cc2)S(=O)(=O)c2ccccc21	-12%
C/C(=N\N=c1/scc(C)n1Cc1ccco1)c1cccc([N+](=O)[O-])c1	-4%
O=S(=O)(N[C@@H]1C[C@H]2CC[C@@H]1C2)c1cccs1	-1%
Cc1[nH]c(=O)[nH]c(=O)c1S(=O)(=O)N1CCCCC1	4%
COc1ccc(NC(=O)c2coc(=O)c3ccccc23)cc1OC	-3%
COc1ccc(Nc2nc(OC)nc(N3CCN(c4ccc(OC)cc4)CC3)n2)cc1	1%
N#Cc1ccc(CN2CC[C@@]3(CCCN(S(=O)(=O)c4ccccc4)C3)C2)cc1	?
CC1(C)Oc2ccc3ccc(=O)oc3c2/C(=C/NCCO)C1=O	8%
O=C(N[C@@H](Cc1ccccc1)C(=O)O)c1cccnc1	-4%
Cc1ccc(-c2nc3ncccc3o2)cc1NC(=O)C(C)(C)C	4%
Cc1nn(-c2ccccc2)c(C)c1C(=O)OC(C)C(=O)Nc1ccc(C(N)=O)cc1 (centres undefined)	-2%
O=C(Nc1ccccc1)Nc1ccc2ccccc2c1	-1%
Cc1ccc(N2C(=O)/C(=C\c3ccc(C(C)C)cc3)N=C2SC2CCOC2=O)cc1 (centres undefined)	-26%

An excerpt from the list above, for reference:
SMILES	VDR inh
N#Cc1ccc(CN2CC[C@@]3(CCCN(S(=O)(=O)c4ccccc4)C3)C2)cc1	?
CC1(C)Oc2ccc3ccc(=O)oc3c2/C(=C/NCCO)C1=O	8%
O=C(N[C@@H](Cc1ccccc1)C(=O)O)c1cccnc1	-4%
Cc1ccc(-c2nc3ncccc3o2)cc1NC(=O)C(C)(C)C	4%
Cc1nn(-c2ccccc2)c(C)c1C(=O)OC(C)C(=O)Nc1ccc(C(N)=O)cc1 (centres undefined)	-2%
O=C(Nc1ccccc1)Nc1ccc2ccccc2c1	-1%
Cc1ccc(N2C(=O)/C(=C\c3ccc(C(C)C)cc3)N=C2SC2CCOC2=O)cc1 (centres undefined)	-26%

The list continues:
SMILES	VDR inh
Nc1ccc(-c2nnn(Cc3ccccc3)n2)cc1	7%
Cc1cc([N+](=O)[O-])nn1CC(=O)N1c2ccccc2CC1C (centres undefined)	-18%
O=C(CSc1nc2c([nH]c3ccccc32)c(=O)n1-c1cccc(Cl)c1)NCC1CCCO1 (centres undefined)	3%
O=C(O)CC(NC(=O)C12CC3CC(CC(C3)C1)C2)c1cc([N+](=O)[O-])ccc1Cl (centres undefined)	-16%
COCc1c(C(=O)N/N=C/c2cccc3ccccc23)nnn1-c1nonc1N	-15%
CSc1ccc(NC(=O)N2CC=C(n3c(=O)[nH]c4ccccc43)CC2)cc1	-15%
O=C(CCn1nnnc1CN1CCOCC1)N1CCC(c2ccccc2F)C1 (centres undefined)	7%
O=c1c2ccccc2nc(/C=C/c2ccccc2)n1CCc1ccccc1	7%
CCOc1ccc(CN(C)C(=O)c2cc3ccccc3o2)cc1OC	-8%
CCOC(=O)c1c(CSc2ccccc2)n(C)c2cc(Br)c(OC)c(O)c12	3%
CCCCOc1ccccc1C1NC(=O)NC(C)=C1C(=O)OCCOCC (centres undefined)	5%
CCOc1ccc(NC(=O)c2c(C)oc3nc(C)nc(N4CCCC4)c23)cc1	1%
COc1cccc(-c2ncc3ccccc3c2COC(=O)c2ccco2)c1	-15%
O=C(CCc1ccccc1)NNC(=O)COc1ccc(Br)cc1	-4%
Cc1cc(Br)ccc1NC(=O)CN(C)C(=O)CN1C(=O)NC(C)(C2CC2)C1=O (centres undefined)	1%
CN(C)c1ccc(S(=O)(=O)NCC(=O)N2CCN(c3ccccc3)CC2)cc1[N+](=O)[O-]	1%
CCOC(=O)c1c(C)[nH]c(C)c1S(=O)(=O)NCCN1CCN(c2cc(Cl)ccc2C)CC1	7%
COc1ccc2cc(-c3cc(C(=O)OCC(=O)Nc4c(C)n(C)n(-c5ccccc5)c4=O)c4ccccc4n3)ccc2c1	2%
Cc1noc2ncnc(Nc3ccc(F)cc3)c12	9%
COC(=O)CC#N	1%
O=C(O)c1nc(Cl)c(Cl)c(N/N=C/c2ccccc2C(F)(F)F)c1Cl	-9%
COc1cc(CNCc2ccc(OC)c3ccccc23)cc(OC)c1OC	-11%
Cc1ccc(OC(=O)CSc2nnc(CNC(=O)c3ccccc3)o2)cc1	14%
C[C@@H]1CCC[C@H](C)N1Cc1nc(Cc2ccccc2Cl)no1	8%
CCC(=O)OCC(=O)Nc1ccc([N+](=O)[O-])cc1OC	2%
CN(Cc1ccco1)c1nc(-c2ccoc2)nc2ccccc12	45µM*
O=C(Nc1ccc2nc(C3CC3)n(Cc3ccc(F)cc3)c(=O)c2c1)c1ccco1	6%
Cc1ccc(-c2csc(NC(=O)C3CC(=O)N(Cc4ccco4)C3)n2)cc1 (centres undefined)	1%
Cc1[nH]c2ccccc2c1C(c1ccccc1)c1cccs1 (centres undefined)	-5%

Bioassay records as filed in PubChem.

This is a subset; count on the stated rates, not on these rows.
